Bioassay records from PubChem.
B2AR ag: activates human beta-2 adrenergic receptor causing internalization; P07550; Am2.2-beta2AR cells, FAP receptor internalization, flow cytometry; reference of the scale not given here; response, % (no concentration beside the values); 340,000 compounds, 0.43% hits; AID 504454;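 active = response above a set limit, near 3 SD of response in nonfluorescent compounds, cut at about 42% in these data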;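 note: stock transfer was 100 nL into about 11 µL; a reference agonist was the positive control; negative values mostly stem from fluorescent compounds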
Target sequence (P07550 whole entry, looked up): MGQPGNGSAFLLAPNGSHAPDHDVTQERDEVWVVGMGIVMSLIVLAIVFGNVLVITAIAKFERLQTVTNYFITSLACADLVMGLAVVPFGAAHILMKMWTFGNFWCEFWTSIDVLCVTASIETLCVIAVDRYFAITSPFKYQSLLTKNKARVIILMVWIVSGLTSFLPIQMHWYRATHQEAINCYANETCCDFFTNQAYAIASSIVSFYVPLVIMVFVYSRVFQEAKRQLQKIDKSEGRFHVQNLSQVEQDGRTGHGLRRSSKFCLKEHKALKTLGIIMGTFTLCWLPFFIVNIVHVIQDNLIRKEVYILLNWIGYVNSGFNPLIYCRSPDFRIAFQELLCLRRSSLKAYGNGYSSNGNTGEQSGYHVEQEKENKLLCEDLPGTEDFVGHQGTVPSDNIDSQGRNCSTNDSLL
HNF4A DNA FP: change in binding of human HNF4 alpha to DNA. P41235. HNF4a-FITC DNA binding, fluorescence polarization, 1 h. activity change, % at 10 µM. 360,000 compounds, 0.3% hits. AID 1224865; in the data active = activity change above about 30%, passing the limit was not always enough;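 note: controls were the assay level and a saturating level of protein; the project sought stronger binding though the title names inhibitors; some compounds called inactive have numbers as strong as hits; positive values seem to mean higher polarization but the record does not say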
Ecoli growth: blocks Escherichia coli growth | OD600, 23 h; stronger effect = lower value | OD600 absorbance (test concentration not listed) | 330,000 compounds, 0.21% hits;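 active = OD600 absorbance below the run mean of sample wells minus 3.6 SD, in any replicate, cut at about 0.56 in these data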;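 note: stock transfer was 300 nL into about 60 µL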
LANA-H2A inh: blocks KSHV LANA binding to histone H2A/H2B; cell-free LANA-H2A/H2B peptide, fluorescence polarization; inhibition, % (no concentration beside the values); 320,000 compounds, 0.6% hits; in the data active = inhibition mostly above about 10%, no sharp cut-off; inactive = mostly below about 6.7%;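 note: stock transfer was 7.5 nL into about 10 µL; 0% = median of vehicle wells and 100% = median of positive control wells; one replicate is shown; the record names a cut of 25% in any replicate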
ALR inh: human ALR oxidase inhibition via reduced H2O2 | 290,000 compounds, 3.8% hits | AID 485317 | inhibition, % (test concentration not listed) | P55789 | purified ALR, DTT oxidation, H2O2 HRP-luminol luminescence;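 active = mean and each replicate at 75% or more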;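 note: stock transfer was 7.5 nL into about 7.5 µL; 0% = neutral wells and 100% = wells with inactivated enzyme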
UCH37 inh: inhibitors of human deubiquitinating enzyme UCH37; Q9Y5K5; inhibition, % (no concentration beside the values); 330,000 compounds, 0.33% hits; purified proteasome/UCH37, Ub-AMC cleavage fluorescence;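 active = mean of two replicates above 20%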;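 note: 0% = compound-free wells with enzyme and 100% = wells lacking proteasome; stock transfer was 100 nL into about 20 µL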
Target sequence (Q9Y5K5 whole entry, looked up): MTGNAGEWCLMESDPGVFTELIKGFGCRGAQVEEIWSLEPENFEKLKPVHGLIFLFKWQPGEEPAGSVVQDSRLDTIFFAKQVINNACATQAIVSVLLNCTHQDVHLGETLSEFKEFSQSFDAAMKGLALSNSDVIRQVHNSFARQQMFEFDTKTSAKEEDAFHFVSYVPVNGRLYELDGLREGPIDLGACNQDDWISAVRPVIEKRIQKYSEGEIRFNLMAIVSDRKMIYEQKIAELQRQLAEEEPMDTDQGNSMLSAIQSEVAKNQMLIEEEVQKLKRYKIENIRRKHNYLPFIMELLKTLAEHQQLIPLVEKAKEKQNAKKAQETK
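Signal – fluorescence, ex 355 nm, em 460 nm · System – Proteasome-bound UCH37 · Input – 0.15 nM proteasome as dispensed · Timing – 30 min preincubation with enzyme, 25 min cleavage at room temperature · Read-out basis – percent inhibition of cleavage signal versus uninhibited and no-proteasome wells · Medium – Tris-HCl pH 7.4 with ATP-MgCl2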
FGF22 binding: FGF22 (human) thermal shift binding; Q9HCT0; recombinant FGF22 thermal shift, SYPRO orange fluorescence; percent of sucrose octasulfate shift, DMSO zero; calls only at 9.99 µM; 340,000 compounds, 1.5% hits;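 active = melting point raised past a set limit in the mean and every replicate; three in four hits are not shown here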
Target sequence (Q9HCT0 whole entry, looked up): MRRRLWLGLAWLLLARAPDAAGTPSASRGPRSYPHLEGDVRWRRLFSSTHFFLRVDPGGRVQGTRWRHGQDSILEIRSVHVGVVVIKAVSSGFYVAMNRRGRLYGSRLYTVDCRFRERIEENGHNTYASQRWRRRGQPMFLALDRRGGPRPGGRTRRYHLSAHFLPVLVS
* hit, by the source's call. Not all compounds are listed (hit frequency here may not be typical).

Start of the data: the first 4 records as a preview:
Results for CCNC(=O)COC(=O)C1C(C(=O)OCC)=C(C)NC(C)=C1C(=O)OCC ?
B2AR ag: -6; HNF4A DNA FP: -2.8; Ecoli growth: 0.68; LANA-H2A inh: 4.3; ALR inh: -22; UCH37 inh: -36

Results for CC(=O)N1CC23C=CC(CC2CC12CCCCCC2)O3 (stereo unspecified) ?
B2AR ag: -5; HNF4A DNA FP: -4.1; Ecoli growth: 0.68; LANA-H2A inh: -0.9; ALR inh: 0; UCH37 inh: 4.4; FGF22 binding: inactive

Results for CCS(=O)(=O)N1CCC(C(=O)NCc2cccc(OC)c2)CC1 ?
B2AR ag: 7; HNF4A DNA FP: 0.0; Ecoli growth: 0.64; LANA-H2A inh: 3.4; ALR inh: -3; UCH37 inh: 1.4; FGF22 binding: inactive

Results for C(=N\C(/N=C/c1ccco1)c1ccco1)/c1ccco1 ?
B2AR ag: -18; HNF4A DNA FP: -7.5; LANA-H2A inh: 11; ALR inh: -14

The whole of this part, previewed entries included:
Results for CCNC(=O)COC(=O)C1C(C(=O)OCC)=C(C)NC(C)=C1C(=O)OCC ?
B2AR ag: -6; HNF4A DNA FP: -2.8; Ecoli growth: 0.68; LANA-H2A inh: 4.3; ALR inh: -22; UCH37 inh: -36

Results for CC(=O)N1CC23C=CC(CC2CC12CCCCCC2)O3 (stereo unspecified) ?
B2AR ag: -5; HNF4A DNA FP: -4.1; Ecoli growth: 0.68; LANA-H2A inh: -0.9; ALR inh: 0; UCH37 inh: 4.4; FGF22 binding: inactive

Results for CCS(=O)(=O)N1CCC(C(=O)NCc2cccc(OC)c2)CC1 ?
B2AR ag: 7; HNF4A DNA FP: 0.0; Ecoli growth: 0.64; LANA-H2A inh: 3.4; ALR inh: -3; UCH37 inh: 1.4; FGF22 binding: inactive

Results for C(=N\C(/N=C/c1ccco1)c1ccco1)/c1ccco1 ?
B2AR ag: -18; HNF4A DNA FP: -7.5; LANA-H2A inh: 11; ALR inh: -14

Results for CC1=CC(=O)C=CC1(C)C(Cl)(Cl)Cl (stereo unspecified) ?
B2AR ag: -3; HNF4A DNA FP: 0.0; Ecoli growth: 0.69; LANA-H2A inh: -2.6; ALR inh: -5; UCH37 inh: -0.3

How did COc1cccc(NC(=O)c2cc3c(=O)n4ccccc4nc3n(CC(C)C)c2=N)c1 do in these assays?
B2AR ag: 7; HNF4A DNA FP: 2.3; Ecoli growth: 0.74; LANA-H2A inh: -1.9; UCH37 inh: 3.1; FGF22 binding: inactive

How did Cc1ccc2nc(SCC(=O)Nc3cc(C)on3)c(C)cc2c1 do in these assays?
B2AR ag: -1; HNF4A DNA FP: 0.0; Ecoli growth: 0.69; LANA-H2A inh: -2.4; UCH37 inh: 1.2; FGF22 binding: inactive

How did CS(=O)(=O)c1ccc(NC(=O)CCN2C(=O)NC3(CCCC3)C2=O)cc1 do in these assays?
B2AR ag: 4; HNF4A DNA FP: 2.4; Ecoli growth: 0.72; LANA-H2A inh: 1.4; ALR inh: -2; UCH37 inh: 1.6; FGF22 binding: inactive

What do the screens show for `O=C(Oc1cccc(NC(=O)c2ccco2)c1)c1ccc(Br)c(S(=O)(=O)N2CCCCC2)c1`?
B2AR ag: 17; HNF4A DNA FP: 0.9; Ecoli growth: 0.69; LANA-H2A inh: -1.7; ALR inh: -7; UCH37 inh: 1.5

What do the screens show for `CC(=O)Nc1ccc2nc(-c3cccn3C)[nH]c2c1`?
B2AR ag: -2; HNF4A DNA FP: 3.4; LANA-H2A inh: 0.4; ALR inh: 8; FGF22 binding: inactive

What do the screens show for `NC(=O)c1nsc(C(=O)N(Cc2cccnc2)C(C(=O)NCc2ccccc2)c2ccc(O)cc2)c1N` (stereo unspecified)?
B2AR ag: 0; HNF4A DNA FP: 2.0; Ecoli growth: 0.66; LANA-H2A inh: -0.4; ALR inh: -3; UCH37 inh: -84; FGF22 binding: inactive

How did COc1ccccc1N(Cc1ccccc1)S(=O)(=O)c1cccc(C(=O)Nc2ncccc2C)c1 do in these assays?
B2AR ag: 10; HNF4A DNA FP: -3.1; Ecoli growth: 0.71; LANA-H2A inh: -0.9; ALR inh: -13; UCH37 inh: 4.6; FGF22 binding: inactive

What do the screens show for `Cc1noc(C)c1C(=O)N1CCN(Cc2ccccc2)CC1`?
B2AR ag: -10; HNF4A DNA FP: 3.0; Ecoli growth: 0.76; LANA-H2A inh: 6.6; ALR inh: 1; UCH37 inh: 4.5

What do the screens show for `O=C1C2CCCN2C(c2ccc(F)cc2)N1c1cccc(Cl)c1` (stereo unspecified)?
B2AR ag: -3; HNF4A DNA FP: 2.0; Ecoli growth: 0.74; LANA-H2A inh: -0.3; ALR inh: 5; UCH37 inh: -0.6; FGF22 binding: inactive

What do the screens show for `O=C(NCCCN1CCCC1)C1CCC(=O)N1C1CCCCC1` (stereo unspecified)?
B2AR ag: 4; HNF4A DNA FP: -1.7; Ecoli growth: 0.69; LANA-H2A inh: 3.3; ALR inh: 0; UCH37 inh: 1.2; FGF22 binding: inactive

What do the screens show for `COc1ccc(NC(=O)Nc2ccccc2F)cc1Cl`?
B2AR ag: -6; HNF4A DNA FP: 4.0; Ecoli growth: 0.73; LANA-H2A inh: -1.2; ALR inh: 2; UCH37 inh: 0.7; FGF22 binding: inactive

How did O=C(Oc1cncc(Cl)c1)c1sccc1Cl do in these assays?
B2AR ag: 11; HNF4A DNA FP: 1.4; Ecoli growth: 0.7; LANA-H2A inh: 6.8; ALR inh: 8; UCH37 inh: 3.4; FGF22 binding: inactive

How did COc1ccc(-c2csc3ncnc(N4CCN(c5ccccc5O)CC4)c23)cc1 do in these assays?
B2AR ag: 11; HNF4A DNA FP: 4.7; Ecoli growth: 0.69; LANA-H2A inh: 0.7; ALR inh: 2; UCH37 inh: -2.4

What do the screens show for `CSc1ccc(NC(=O)NCc2ccccc2)cc1`?
B2AR ag: 0; HNF4A DNA FP: 2.4; Ecoli growth: 0.65; LANA-H2A inh: -1.4; ALR inh: -5; UCH37 inh: 3.2; FGF22 binding: inactive

What do the screens show for `Cc1csc(NC(=O)CCC(=O)N(CC(=O)NC2CCCC2)Cc2ccccc2)n1`?
B2AR ag: -11; HNF4A DNA FP: 0.1; Ecoli growth: 0.65; LANA-H2A inh: -3.9; ALR inh: 3; UCH37 inh: 2.6; FGF22 binding: inactive

Results for Cc1ccc(CNn2cnnc2SCc2ccc(F)cc2)cc1 ?
B2AR ag: -2; HNF4A DNA FP: -3.0; Ecoli growth: 0.71; LANA-H2A inh: -5.2; ALR inh: -5; UCH37 inh: 1.7

Results for CCOC(=O)c1c(C)[nH]c(C)c1C(=O)COC(=O)c1cccc(S(=O)(=O)N(CC)CC)c1 ?
B2AR ag: 44*; HNF4A DNA FP: -2.0; Ecoli growth: 0.74; LANA-H2A inh: 2.4; ALR inh: 4; UCH37 inh: -5.2

What do the screens show for `CC(=O)Nc1ccc(CN(C)CC2CCCN(CCc3cccc(C(F)(F)F)c3)C2)cc1` (stereo unspecified)?
B2AR ag: -3; HNF4A DNA FP: 2.5; Ecoli growth: 0.61; LANA-H2A inh: -1.8; ALR inh: -2; UCH37 inh: 3.3; FGF22 binding: inactive

How did COc1ccc(/C(N)=N/OC(=O)CSc2ccc(C)cc2)cc1OC do in these assays?
B2AR ag: 1; HNF4A DNA FP: 0.3; Ecoli growth: 0.71; LANA-H2A inh: -6.8; ALR inh: -4; UCH37 inh: 4.2

What do the screens show for `CSCc1c(C(=O)Nc2ccc3c(c2)OCO3)oc2ccccc12`?
B2AR ag: -11; HNF4A DNA FP: -0.3; Ecoli growth: 0.62; LANA-H2A inh: -1.6; ALR inh: 1; UCH37 inh: -1.4; FGF22 binding: inactive

How did CC(NC(=O)c1cncc(Br)c1)c1ccc(S(N)(=O)=O)cc1 (stereo unspecified) do in these assays?
B2AR ag: -2; HNF4A DNA FP: -0.9; Ecoli growth: 0.72; LANA-H2A inh: -6.8; ALR inh: 0; UCH37 inh: 0.1

How did O=C(CNC(=O)C1CCCCC1)Nc1cc(Cl)ccc1Cl do in these assays?
B2AR ag: -15; HNF4A DNA FP: -1.9; Ecoli growth: 0.68; LANA-H2A inh: 3.2; ALR inh: -32; UCH37 inh: 0.8; FGF22 binding: inactive

What do the screens show for `COc1ccc(CNS(=O)(=O)c2ccc(OC)cc2)cc1`?
B2AR ag: -1; HNF4A DNA FP: 0.4; Ecoli growth: 0.74; LANA-H2A inh: 3.4; ALR inh: 5; UCH37 inh: 1.4

How did CCCNCc1cc(Br)ccc1OCC(=O)NCCc1ccccc1 do in these assays?
B2AR ag: 8; HNF4A DNA FP: 0.9; Ecoli growth: 0.68; LANA-H2A inh: 6.8; ALR inh: -8; UCH37 inh: -0.6

How did Cc1cccn2cc(CCNS(=O)(=O)c3cccs3)nc12 do in these assays?
B2AR ag: 5; HNF4A DNA FP: 1.2; Ecoli growth: 0.66; LANA-H2A inh: -3.1; UCH37 inh: 1.7; FGF22 binding: inactive

What do the screens show for `CSc1nc(=S)n(-c2cc(C)ccc2C)c(C)c1C(C)=O`?
B2AR ag: 4; HNF4A DNA FP: -0.1; Ecoli growth: 0.65; LANA-H2A inh: 2.0; ALR inh: 3; UCH37 inh: 3.6; FGF22 binding: inactive

How did CCc1cccc(NC(=O)C2CCN(S(=O)(=O)c3ccc4c(c3)CC(C)N4C(C)=O)CC2)c1 (stereo unspecified) do in these assays?
B2AR ag: -4; HNF4A DNA FP: 3.6; Ecoli growth: 0.74; LANA-H2A inh: 2.0; ALR inh: -2; UCH37 inh: 7.6; FGF22 binding: inactive

Results for CC(=O)NC(CC(=O)NCCc1ccccc1)c1ccccc1 (stereo unspecified) ?
B2AR ag: 6; HNF4A DNA FP: 0.6; Ecoli growth: 0.69; LANA-H2A inh: 2.0; ALR inh: -14; UCH37 inh: 5.0; FGF22 binding: inactive

What do the screens show for `Cn1nc(C(=O)N2CCOCC2)c2ccccc2c1=O`?
B2AR ag: 0; HNF4A DNA FP: -1.5; Ecoli growth: 0.72; LANA-H2A inh: 1.0; ALR inh: -15; UCH37 inh: 3.3

How did COc1ccc(/C(O)=C2\C(=O)C(=O)N(CC3CCCO3)C2c2cc(OC)ccc2OC)cc1 (stereo unspecified) do in these assays?
B2AR ag: 9; HNF4A DNA FP: 1.3; Ecoli growth: 0.71; LANA-H2A inh: 1.2; ALR inh: 0; UCH37 inh: 10; FGF22 binding: inactive

What do the screens show for `Cc1ccc(-c2cc(-c3ccccc3C)[nH]n2)c(O)c1`?
B2AR ag: 4; HNF4A DNA FP: 0.2; Ecoli growth: 0.71; LANA-H2A inh: -2.7; ALR inh: 11; UCH37 inh: -1.4

How did NCCNC(=O)c1c(O)c2cccc3c2n(c1=O)CCC3 do in these assays?
B2AR ag: -3; HNF4A DNA FP: 0.4; Ecoli growth: 0.57; LANA-H2A inh: 1.3; ALR inh: -5; UCH37 inh: -11; FGF22 binding: inactive

How did COc1ccc(CCNC(=O)CCn2c(=O)[nH]c3cc(OC)c(OC)cc3c2=O)cc1OC do in these assays?
B2AR ag: -1; HNF4A DNA FP: -1.7; Ecoli growth: 0.73; LANA-H2A inh: 1.3; UCH37 inh: 0.1

Results for O=C(CCc1ccc(S(=O)(=O)NCCc2ccccc2)cc1)N1CCN(Cc2ccc3c(c2)OCO3)CC1 ?
B2AR ag: 14; HNF4A DNA FP: 0.3; Ecoli growth: 0.65; LANA-H2A inh: 0.4; ALR inh: 3; UCH37 inh: -0.3

Results for O=C(Cn1cc2c(n1)CCCC2)Nc1ccccc1Br ?
B2AR ag: 2; HNF4A DNA FP: 4.2; Ecoli growth: 0.75; LANA-H2A inh: -2.4; UCH37 inh: -0.1; FGF22 binding: inactive
